Screening results as filed in PubChem.
EPAC2 ant val – validation of human EPAC2 antagonists. Q8WZA2. EPAC2 Rap1B BODIPY-GDP exchange, fluorescence. Potency, µM (titrated, usually from 112 µM), for the others: at the top dose activity, negative = inhibition, hits mostly inhibitors. actives 1.7% (n = 16,000); active means well fitted inhibition curve with a large enough effect; inconclusive means small, poorly fitted or top-dose-only effect; inactive means no such curve, though single readings can be large or run the other way;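 further: 100% = activation by cAMP agonist control; nearly all actives have a fitted effect of over 40% in size; the record reuses the description of the EPAC1 agonist screen; inactives centre near -10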
Target sequence (Q8WZA2 whole entry, looked up): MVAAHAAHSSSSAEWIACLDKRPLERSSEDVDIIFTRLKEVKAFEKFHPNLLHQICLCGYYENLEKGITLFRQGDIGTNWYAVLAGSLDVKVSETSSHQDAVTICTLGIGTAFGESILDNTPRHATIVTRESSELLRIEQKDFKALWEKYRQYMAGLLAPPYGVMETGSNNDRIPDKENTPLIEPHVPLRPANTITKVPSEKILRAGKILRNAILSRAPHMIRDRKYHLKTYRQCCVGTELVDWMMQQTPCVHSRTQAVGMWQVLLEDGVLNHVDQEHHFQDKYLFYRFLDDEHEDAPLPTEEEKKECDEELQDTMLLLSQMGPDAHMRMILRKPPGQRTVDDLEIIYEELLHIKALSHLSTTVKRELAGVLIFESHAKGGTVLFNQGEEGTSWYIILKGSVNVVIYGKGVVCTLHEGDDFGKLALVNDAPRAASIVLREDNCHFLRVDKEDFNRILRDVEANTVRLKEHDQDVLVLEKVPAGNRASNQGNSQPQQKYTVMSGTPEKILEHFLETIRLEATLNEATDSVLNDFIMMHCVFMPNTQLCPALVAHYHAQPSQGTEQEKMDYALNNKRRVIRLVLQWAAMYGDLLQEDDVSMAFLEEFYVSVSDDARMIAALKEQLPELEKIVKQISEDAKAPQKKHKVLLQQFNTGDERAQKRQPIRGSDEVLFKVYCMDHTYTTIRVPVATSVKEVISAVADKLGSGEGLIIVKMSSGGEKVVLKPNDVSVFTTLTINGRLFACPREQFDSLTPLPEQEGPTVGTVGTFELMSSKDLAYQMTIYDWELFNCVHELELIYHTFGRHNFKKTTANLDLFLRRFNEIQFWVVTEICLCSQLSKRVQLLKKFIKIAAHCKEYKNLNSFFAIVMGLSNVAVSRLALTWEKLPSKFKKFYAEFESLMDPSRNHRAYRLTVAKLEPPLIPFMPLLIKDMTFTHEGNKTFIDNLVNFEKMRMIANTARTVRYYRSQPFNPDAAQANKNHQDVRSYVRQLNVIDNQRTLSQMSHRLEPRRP
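Fluorescent exchange read-out: 100 nM EPAC2 with 250 nM RAP1B–BODIPY-GDP and 50 uM GDP; BODIPY-GDP release lowers fluorescence. Read at 480/540 nm every 5 min for 30 min at room temperature; normalized to 6.5 mM cAMP.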
The depositor's hits bear a star; ? = inconclusive; & = joins results of further samples; [ ] = dose if it differs, or a comment. Potency means the concentration at half of the fitted maximal effect. These rows are one share of the data, so the mix of outcomes need not match the whole.

SMILES	EPAC2 ant val
CN=C1N[C@H](c2ccccc2)N(c2ccccc2)S1	?
CC(C)(C)c1ccc(S(=O)(=O)/C=C/C#N)cc1	-12%
O=C1Nc2ccc(I)cc2/C1=C/c1cc(Br)c(O)c(Br)c1	?
Cc1csc[n+]1CCC1CCCCC1	-6%
COc1cc2nc(CN(CCO)C3CS(=O)(=O)CC3O)nc(N3CCCCC3)c2cc1OC (stereo unspecified)	-23%
CC(C)[C@H](NC(=O)CNC(=O)OC(C)(C)C)C(=O)N[C@H](C=O)C(C)C	-5%[151 µM]
Nc1nc2c(ncn2[C@@H]2O[C@H](COP(=O)(O)OP(=O)(O)O)[C@@H](O)[C@H]2O)c(=O)[nH]1	-17%
COC1=CC(=O)C=C(OC)C1=O	19%
CN[C@@H]1[C@@H](O)[C@@H](O[C@@H]2[C@@H](O)[C@H](O[C@H]3O[C@H](CN)[C@@H](O)[C@H](O)[C@H]3O)[C@@H](N)C[C@H]2NC(=O)C(O)CN)OC[C@]1(C)O (stereo partly specified)	-1%
CN(C)c1ccnc(-c2ccccc2C(F)(F)F)n1	-21%
COc1ccc(CN2CC[C@H]3C=CC[C@@H](C(=O)N4CCN(c5ccccc5)CC4)[C@H]3C2=O)cc1OC	-5%
COCC1CCCN(Cc2ccc3c(c2)CN(C(=O)c2ccc(-c4ccc(C)o4)cc2)CCO3)C1 (stereo unspecified)	-3%
COc1cccc(-c2ccc3ncnc(NCc4ccccc4)c3c2)c1	-24%
O=C(/C=C/c1ccc(O)cc1)c1ccc(O)cc1O	?
CC[C@]1(O)C[C@@H]2CN(CCc3c([nH]c4ccccc34)[C@](C(=O)OC)(c3cc4c(cc3OC)N(C)[C@H]3[C@](O)(C(=O)OC)[C@@H](C(=O)OC)[C@@]5(CC)C=CCN6CC[C@@]43[C@@H]65)C2)C1	-15%
Nc1nc2c(cnn2CCc2ccccc2)c2nc(-c3ccco3)nn12	-2%
COCCn1c(=O)c(-c2cn(C)c3ccccc23)nc2cncnc21	2%
COCCn1c(=O)c(-c2cccc(C#N)c2)nc2cnc(Oc3ccc(OC)cc3)nc21	-12%
Cc1c(C(=O)N2CC3CCC2C3)sc2ncnc(NCc3ccco3)c12 (stereo unspecified)	2%
O=C1OC(=O)C2C3CCC(O3)C12 (stereo unspecified)	9%&-15%&15%
O=c1cc(CO)occ1O	20%&3%&-26%
COC(=O)C1CCN(Cc2ccc3c(c2)CN(C(=O)c2cc(C4CC4)on2)CCO3)CC1	0%
O=c1c(O)c(-c2ccc(O)c(O)c2)oc2ccccc12	-14%
N[C@H](C(=O)O)c1ccc(O)c(C(=O)O)c1	-1%&-21%
COC(=O)[C@@H]1CCCN1Cc1ccc2c(c1)CN(Cc1cccn1-c1ccc(Cl)cn1)CCO2	1%

4 records picked at random from the list so far:
SMILES	EPAC2 ant val
COC1=CC(=O)C=C(OC)C1=O	19%
COc1cccc(-c2ccc3ncnc(NCc4ccccc4)c3c2)c1	-24%
CN[C@@H]1[C@@H](O)[C@@H](O[C@@H]2[C@@H](O)[C@H](O[C@H]3O[C@H](CN)[C@@H](O)[C@H](O)[C@H]3O)[C@@H](N)C[C@H]2NC(=O)C(O)CN)OC[C@]1(C)O (stereo partly specified)	-1%
Nc1nc2c(cnn2CCc2ccccc2)c2nc(-c3ccco3)nn12	-2%

Next part
SMILES	EPAC2 ant val
COC(=O)c1ccc(C(=O)NCC2Cc3cccc(-c4ccc(C(=O)OC)cn4)c3O2)cc1 (stereo unspecified)	-14%
COc1ccc(SCCN2CC[C@@H](O)CCC2=O)cc1	-12%
COc1cc(OC)c2c(c1)OC(c1ccccc1)CC2=O (stereo unspecified)	?
COc1ccc(Oc2ncc3nc(CCc4ccccc4)c(=O)n(C4CC4)c3n2)cc1	-24%
CC(C)CN1CCCC2(CCN(C(=O)c3cccc(F)c3)CC2)C1	-22%
Cc1cc2c(OCC(CNC(C)(C)C)OC(=O)c3ccccc3)cccc2[nH]1 (stereo unspecified)	-9%
COC1(C2=NCCN2)COc2ccccc2O1 (stereo unspecified)	-22%
COC(=O)CC1[C@@]2(C)C[C@@]34OC5(C)OC6(CC[C@@]7(C)C(c8ccoc8)OC(=O)C(C(C)=O)C7[C@]6(O5)C(O)[C@@]3(O)C2O)[C@]14C (stereo partly specified)	-7%
O=C(c1cccc(F)c1)N1CCC2(CCN(Cc3ccccc3)CC2)CC1	-11%
COc1cc(-c2c(OC)cccc2OC)cc2c1OCCN(Cc1cn[nH]c1-c1ccc(Cl)cc1)C2	-16%
CN(CCc1ccc(Cl)c(Cl)c1)CC(O)COc1ccc(NS(C)(=O)=O)cc1 (stereo unspecified)	-2%
COc1ccc(C(=O)N2CCC[C@@]3(CCN(c4ccncc4)C3)C2)cc1	-23%
COCCn1c(=O)c(-c2ccc(Cl)cc2)nc2cnc(N3CCOCC3)nc21	11%
CCOC(=O)c1c[nH]c2nc(C)ccc2c1=O	10%
O=C(O)c1ccc2nc(-c3ccccc3)c(-c3ccccc3)nc2c1	-17%
O=c1c(-c2cccs2)nc2cnc(Oc3cccc(Cl)c3)nc2n1C1CC1	-20%
NC(=O)c1ccccc1O	-12%
CC1=C(CC(=O)O)c2cc(F)ccc2/C1=C\c1ccc(S(C)(=O)=O)cc1	16%
Cc1noc(C)c1-c1nc(NC2CCNCC2)c2ccccc2n1	-7%
COc1ccc2c(c1)CC[C@@H]1[C@@H]2CC[C@]2(C)[C@@H](NCCCCCCN3C(=O)C=CC3=O)CC[C@@H]12	-7%[151 µM]
Nc1ccc(S(=O)(=O)Nc2nccs2)cc1	-7%&-23%
COC1=C[C@@H](C)C2CC3OC(=O)C[C@H]4C(C)=C(OC)C(=O)C([C@@]2(C)C1=O)[C@@]34C (stereo partly specified)	-6%
CN1CCc2cccc3c2[C@@H]1Cc1ccc(O)c(O)c1-3	-16%
COC(=O)c1c(OCc2ccccn2)cc(=O)n2c1CCN(C(=O)c1cc(C(C)C)nn1C)CC2	-18%
Cn1nc(C(=O)NCCN2Cc3ccccc3OC(c3ccsc3)C2)c2ccccc2c1=O (stereo unspecified)	-19%
Next part
SMILES	EPAC2 ant val
Oc1cc(O)c2c(c1)O[C@H](c1ccc(O)c(O)c1)[C@H](O)C2	23%
C[C@H]1C(O)[C@@]23CCC4C5(C=[N+](CCO)C[C@]4(C)CCC5)C2C[C@@H]1C3 (stereo partly specified)	15%
COc1cccc(Cn2c(=O)c(-c3ccc(Cl)cc3)nc3cnc(OC)nc32)c1	6%
N#Cc1ccccc1-c1ccc2ncnc(NCc3cccnc3)c2c1	-5%
CN(C)c1ncc2nc(-c3ccccc3)c(=O)n(CCc3ccccc3)c2n1	-1%
CC(C)(C)[C@@H]1CCC(=O)N(CC[C@H](Sc2ccccc2)c2ccccc2)CC1	?
O=C1CCC(N2C(=O)c3ccccc3C2=O)C(=O)N1 (stereo unspecified)	7%
CN1CCN2c3ncccc3Cc3ccccc3C2C1 (stereo unspecified)	?
O=C(Nc1ccc(Cl)c(C(F)(F)F)c1)[C@@H]1CC=C[C@@H]2CCN(Cc3ccc(Cl)c(Cl)c3)C(=O)[C@@H]21	-4%
CCS(=O)(=O)CCn1c([N+](=O)[O-])cnc1C	-6%[56.6 µM]
NS(=O)(=O)c1cc2c(cc1Cl)N[C@@H]([C@@H]1C[C@@H]3C=C[C@H]1C3)NS2(=O)=O	-27%
COc1cccc(Nc2ncc3nc(C)c(=O)n(CCC#N)c3n2)c1	-29%
CC(=O)OC[C@@]12C(=O)[C@@H](O)[C@@H](C)[C@]3(C[C@@H](c4ccoc4)O[C@@H]3OC(C)=O)[C@H]1CCC[C@]21CO1	-20%
COc1cc(/C(=C/c2ccccc2)c2ccccc2)c2c(c1)oc1ccccc12	?
COCCn1c(=O)c(-c2ccccc2)nc2cnc(Oc3ccc(OC)cc3)nc21	-17%
COc1ccc2c(c1)CCC1C2CC[C@@]2(C)C1CC[C@@H]2NCCCCCCN1C(=O)C=CC1=O (stereo partly specified)	-10%
COc1ccccc1C1CN(CCNC(=O)c2ccccc2Cl)Cc2ccccc2O1 (stereo unspecified)	-21%
Cn1c(=O)c(-c2cccs2)nc2cnc(N3CCNCC3)nc21	-2%
CC(=NCc1ccccc1)c1ccccc1O	-5%
CN1C[C@H]2c3ccccc3Oc3ccc(Cl)cc3[C@@H]2C1	?
COc1ccccc1CCn1c(=O)c(-c2ccc(F)c(F)c2)nc2cncnc21	-9%
FC(F)(F)c1ccccc1-c1ccc2ncnc(NCc3cccs3)c2c1	?
c1ccc(-c2nc[nH]c2-c2ccccc2)cc1	2%
COc1ccc(C(OCCN2CCC[C@@H](C(=O)O)C2)(c2ccc(OC)cc2)c2ccc(OC)cc2)cc1	?

26 entries from above, with bars between the fields:
molecule | EPAC2 ant val
COC(=O)c1c(OCc2ccccn2)cc(=O)n2c1CCN(C(=O)c1cc(C(C)C)nn1C)CC2 | -18%
Cn1nc(C(=O)NCCN2Cc3ccccc3OC(c3ccsc3)C2)c2ccccc2c1=O (stereo unspecified) | -19%
Oc1cc(O)c2c(c1)O[C@H](c1ccc(O)c(O)c1)[C@H](O)C2 | 23%
C[C@H]1C(O)[C@@]23CCC4C5(C=[N+](CCO)C[C@]4(C)CCC5)C2C[C@@H]1C3 (stereo partly specified) | 15%
COc1cccc(Cn2c(=O)c(-c3ccc(Cl)cc3)nc3cnc(OC)nc32)c1 | 6%
N#Cc1ccccc1-c1ccc2ncnc(NCc3cccnc3)c2c1 | -5%
CN(C)c1ncc2nc(-c3ccccc3)c(=O)n(CCc3ccccc3)c2n1 | -1%
CC(C)(C)[C@@H]1CCC(=O)N(CC[C@H](Sc2ccccc2)c2ccccc2)CC1 | ?
O=C1CCC(N2C(=O)c3ccccc3C2=O)C(=O)N1 (stereo unspecified) | 7%
CN1CCN2c3ncccc3Cc3ccccc3C2C1 (stereo unspecified) | ?
O=C(Nc1ccc(Cl)c(C(F)(F)F)c1)[C@@H]1CC=C[C@@H]2CCN(Cc3ccc(Cl)c(Cl)c3)C(=O)[C@@H]21 | -4%
CCS(=O)(=O)CCn1c([N+](=O)[O-])cnc1C | -6%[56.6 µM]
NS(=O)(=O)c1cc2c(cc1Cl)N[C@@H]([C@@H]1C[C@@H]3C=C[C@H]1C3)NS2(=O)=O | -27%
COc1cccc(Nc2ncc3nc(C)c(=O)n(CCC#N)c3n2)c1 | -29%
CC(=O)OC[C@@]12C(=O)[C@@H](O)[C@@H](C)[C@]3(C[C@@H](c4ccoc4)O[C@@H]3OC(C)=O)[C@H]1CCC[C@]21CO1 | -20%
COc1cc(/C(=C/c2ccccc2)c2ccccc2)c2c(c1)oc1ccccc12 | ?
COCCn1c(=O)c(-c2ccccc2)nc2cnc(Oc3ccc(OC)cc3)nc21 | -17%
COc1ccc2c(c1)CCC1C2CC[C@@]2(C)C1CC[C@@H]2NCCCCCCN1C(=O)C=CC1=O (stereo partly specified) | -10%
COc1ccccc1C1CN(CCNC(=O)c2ccccc2Cl)Cc2ccccc2O1 (stereo unspecified) | -21%
Cn1c(=O)c(-c2cccs2)nc2cnc(N3CCNCC3)nc21 | -2%
CC(=NCc1ccccc1)c1ccccc1O | -5%
CN1C[C@H]2c3ccccc3Oc3ccc(Cl)cc3[C@@H]2C1 | ?
COc1ccccc1CCn1c(=O)c(-c2ccc(F)c(F)c2)nc2cncnc21 | -9%
FC(F)(F)c1ccccc1-c1ccc2ncnc(NCc3cccs3)c2c1 | ?
c1ccc(-c2nc[nH]c2-c2ccccc2)cc1 | 2%
COc1ccc(C(OCCN2CCC[C@@H](C(=O)O)C2)(c2ccc(OC)cc2)c2ccc(OC)cc2)cc1 | ?
